KCNQ2 pot – enhances the rat KCNQ2 potassium channel; O88943; actives 0.54% (n = 310,000); B-score at 10 µM; CHO-K1 KCNQ2, FluxOR thallium flux fluorescence; stronger effect = higher value; AID 2239;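 active = fluorescence ratio B-score at least 3 SD of library B-scores, with initial fluorescence B-score within 3 SD, cut at about 5.3 in these data; same plate scores as AID 2156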;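 note: B-score of peak minus minimum over baseline fluorescence ratio after K+ and Tl+ stimulus; positive B-score means potentiation of KCNQ2 with more thallium influx and brighter signal; only the inactives scoring about 0 or higher are listed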
Target sequence (O88943 whole entry, looked up): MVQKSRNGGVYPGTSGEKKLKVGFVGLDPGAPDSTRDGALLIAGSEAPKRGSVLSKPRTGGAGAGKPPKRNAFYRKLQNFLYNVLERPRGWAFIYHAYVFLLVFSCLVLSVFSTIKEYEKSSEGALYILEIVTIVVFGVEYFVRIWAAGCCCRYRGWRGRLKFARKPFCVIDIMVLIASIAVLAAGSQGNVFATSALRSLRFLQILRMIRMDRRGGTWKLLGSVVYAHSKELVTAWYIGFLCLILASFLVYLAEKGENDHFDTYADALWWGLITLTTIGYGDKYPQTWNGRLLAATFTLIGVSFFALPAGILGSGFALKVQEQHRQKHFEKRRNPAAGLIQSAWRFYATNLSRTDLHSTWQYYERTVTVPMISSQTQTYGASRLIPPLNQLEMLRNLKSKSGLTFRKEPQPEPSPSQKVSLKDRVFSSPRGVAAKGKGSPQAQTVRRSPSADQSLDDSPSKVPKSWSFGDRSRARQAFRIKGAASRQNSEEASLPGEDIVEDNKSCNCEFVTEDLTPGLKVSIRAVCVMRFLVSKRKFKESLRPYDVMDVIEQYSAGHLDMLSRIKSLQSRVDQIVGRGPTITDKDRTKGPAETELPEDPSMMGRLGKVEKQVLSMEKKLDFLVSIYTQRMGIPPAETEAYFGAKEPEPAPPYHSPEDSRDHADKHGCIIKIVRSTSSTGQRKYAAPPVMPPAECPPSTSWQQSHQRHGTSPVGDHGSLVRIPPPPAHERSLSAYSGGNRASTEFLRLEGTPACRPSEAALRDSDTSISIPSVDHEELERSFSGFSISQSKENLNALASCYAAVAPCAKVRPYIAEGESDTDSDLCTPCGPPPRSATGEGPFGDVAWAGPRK
KCNQ2 pot baseline – also measured in KCNQ2 pot; calls as there; B-score; compound at 10 µM; measured here: initial fluorescence intensity artifact check;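 brightness before thallium and not channel activity; 0 = typical well and far values either way flag optical interference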
Starred values were filed as active, the others as inactive. Not all compounds are listed; the hit share may differ from the screen's.

molecule,KCNQ2 pot,KCNQ2 pot baseline
CCN(C(=O)COC(=O)/C=C/c1c(C)nn(-c2ccccc2)c1C)C1CCS(=O)(=O)C1 (stereo unspecified),0.08,-2.1
CCN(CC)S(=O)(=O)c1cc([N+](=O)[O-])ccc1NNC(=O)Nc1ccccc1,0.11,0.68
Cc1nc(N2CCCCCC2)c2ccccc2n1,3.2,-0.85
CCC(=O)c1ccc(OCC(=O)OCC(=O)NC2CCCC2)cc1,1.6,-1.9
Cc1cc(C)c2c(=O)c(/C=C3\NC(=S)NC3=O)coc2c1,1.5,0.24
S=c1[nH]nc(-c2ccco2)n1/N=C/C=C/c1ccco1,0.89,-1.3
Cc1ccccc1C(=O)NC1CCN(Cc2ccccc2)CC1,1.4,-0.03
COc1ccc(C)cc1S(=O)(=O)N1CCN(S(=O)(=O)c2cc(C)ccc2OC)CC1,1.8,-0.49
CCOP(=O)(CC(C(C)=O)C(O)c1ccccc1)OCC (stereo unspecified),1.6,1.1
O=C(c1cccc(S(=O)(=O)N2CCOCC2)c1)N(Cc1ccc(F)cc1)Cc1ccco1,0.78,-1.5
Cc1ccc(S(=O)(=O)N2CCC(C(=O)OCC(=O)NCCc3ccccc3)CC2)cc1C,0.51,-0.14
COC(=O)c1ccc(CSc2nnc(NC(C)C)s2)o1,2.3,-0.86

Part of the list above in order of number of heavy atoms, descending:
molecule,KCNQ2 pot,KCNQ2 pot baseline
Cc1ccc(S(=O)(=O)N2CCC(C(=O)OCC(=O)NCCc3ccccc3)CC2)cc1C,0.51,-0.14
CCN(C(=O)COC(=O)/C=C/c1c(C)nn(-c2ccccc2)c1C)C1CCS(=O)(=O)C1 (stereo unspecified),0.08,-2.1
CCN(CC)S(=O)(=O)c1cc([N+](=O)[O-])ccc1NNC(=O)Nc1ccccc1,0.11,0.68
CCC(=O)c1ccc(OCC(=O)OCC(=O)NC2CCCC2)cc1,1.6,-1.9
Cc1ccccc1C(=O)NC1CCN(Cc2ccccc2)CC1,1.4,-0.03
Cc1cc(C)c2c(=O)c(/C=C3\NC(=S)NC3=O)coc2c1,1.5,0.24

The list continues.
molecule,KCNQ2 pot,KCNQ2 pot baseline
CCOCCCNC(=O)C(c1ccc(C)cc1)N1CCOCC1 (stereo unspecified),0.2,-0.03
COc1ccccc1NC(=O)CCc1c(C)nc2c(-c3ccc(F)cc3)c(C)nn2c1C,0.05,1.2
O=S(=O)(Nc1ccc(-c2ccc3nncn3n2)cc1)c1ccccc1Cl,0.9,1.2
CCC1CCCCN1C(=O)CSc1nnc(-c2ccc3c(c2)OCCO3)o1 (stereo unspecified),0.63,-0.3
Cc1ccc(OCC(=O)Nc2ccc(F)cc2)cc1,1.1,-0.32
c1ccc(C2=NC(c3ccccc3)N=C(c3ccccc3)N2)cc1,0.4,-0.9
CCOC(=O)c1c(/N=C/N(C)C)sc2c1CCC2,0.21,1.1
O=C(CO/N=C/c1ccccc1O)N1CCc2ccccc21,0.1,-0.98
CCOc1ccccc1Nc1nc(N)nc(CSc2nncn2C)n1,0.01,3.1
CCOC(=O)c1nccnc1C(=O)Nc1ccc(C(F)(F)F)cc1,0.41,0.88
S=C(NCc1ccccc1)N1CCN(C2CCCCC2)CC1,0.44,-1.5
Cc1ccc(N/C=C2\CCCCC2=O)nc1,0.27,1
O=C(c1ccc(Cl)c(F)c1F)N1CCOCC1,0.13,-0.09
CCOC(=O)COn1c(-n2nc(C)cc2C)nc2ccccc2c1=O,0.8,0.07
CN1C(=O)/C(=C/c2ccc(O)c([N+](=O)[O-])c2)NC1=S,0.82,-0.03
c1ccc(CCCNc2ncnc3nc[nH]c23)cc1,1.9,-0.69
COc1ccc(S(=O)(=O)N2CCC(C(=O)N[C@@H](C)C(=O)NC3CCCC3)CC2)cc1,2,1.6
O=C(Oc1ccc(N2C(=O)CCC2=O)cc1)c1ccccc1Cl,0.01,0.45
COc1cc(/C=N/NC(=O)Nc2cccc3nsnc23)cc(OC)c1OC,0.97,1.1
CN1C2CCC1CC(NC(=O)CSc1ccc(Cl)cc1)C2 (stereo unspecified),0.16,-0.02
Cc1onc(-c2ccncc2)c1C(=O)O,1.4,0.18
c1ccc(OCCCCn2cnc3ccccc32)cc1,0.1,0.04
O=C(/C=C/c1ccccc1Cl)NC1CCS(=O)(=O)C1 (stereo unspecified),1.3,0.6
Cc1ccccc1OCCC(=O)OCC(=O)NCCNC(=O)COC(=O)CCOc1ccccc1C,0.68,-1.3
N#CNC(=Nc1ccc(Cl)cc1)Oc1ccccc1,0.46,-1.4
CCn1c(CC(=O)Nc2ccc(C)c(Cl)c2)nnc1SCC(=O)Nc1nc(C)cs1,0.61,0.97
CC(Oc1ccc(Br)cc1)C(=O)N1CCC(C(N)=O)CC1 (stereo unspecified),0.23,-0.46
O=C(C(=O)N1CCOCC1)c1cn(CC(=O)N2CCCCC2)c2ccccc12,0.64,0.05
COc1ccc(N2C(=O)CSC2c2ccc3c(c2)OCO3)c(OC)c1 (stereo unspecified),0.5,0.7
Cc1ccccc1C(=O)c1cccn1CC(=O)NCCCN1CCCCC1,0.49,-1.2
CCC(C)N1C(=O)CCC1C(=O)N1CCN(c2ccccc2F)CC1 (stereo unspecified),0.05,-0.92
O=C(O)CNC(=O)CC1S/C(=N/N=C/c2ccccc2O)NC1=O (stereo unspecified),1.8,-1.2
CCc1cc2cc3c(cc2nc1SCC(=O)Nc1cc(C)on1)OCO3,0.92,1.1
O=[N+]([O-])c1ccc(-c2csc3[n+]2CCS3)cc1,1.8,0.04
CC1(C)S[C@@H]2[C@H](NC(=O)C(NC(=O)N3CCNC3=O)c3ccccc3)C(=O)N2[C@H]1C(=O)O (stereo partly specified),0.56,0.25
Cc1cc(C(=O)Nc2ccc(F)cc2C)n(-c2ccccc2)n1,1.4,0.82
COc1ccc(N=C/C=C2\C=C(c3ccccc3)OC(C)(C)O2)cc1,0.48,-0.39
CCCCNC(=O)C1CCCN1C(=O)NC1CCCCC1 (stereo unspecified),0.91,-1.8
CN(C)C=Nc1c(C(=O)c2ccccc2)sc2nccc(N(C)C)c12,0.81,-0.24
CC1CC(C)CN(C(=O)c2ccncc2)C1 (stereo unspecified),1.1,1.2
CN(C)CC(O)COc1cccc(OCC(O)CN(C)C)c1 (stereo unspecified),1.1,-0.85
COc1ccccc1CNC(=O)COC(=O)/C=C/c1cccs1,0.69,-0.2
O=C(Cc1ccccc1)N1CCC(c2nc3ccccc3[nH]2)CC1,0.23,-0.56
COc1ccc(NC(=O)CC2C(=O)N(C)C(=S)N2Cc2ccncc2)cc1 (stereo unspecified),2.4,0.06
Cc1cccc(NC(=O)c2ccc(CN3CCN(Cc4ccccc4)CC3)cc2)c1,0.51,-0.31
COc1cc(/C=N/N=C2/C(=O)Nc3ccccc32)cc(OC)c1O,0.03,-2
CCOc1ccc(NC(=O)CN(C)C(=O)c2cc(S(=O)(=O)N3CCCCC3)ccc2Cl)cc1OCC,0.43,-0.75
COc1ccccc1Nc1ncnc2c1c(C)c(C)n2CCCN(C)C,0.9,-0.14
Cn1cc(C(=O)C(=O)N2CCOCC2)c2ccccc21,0.83,0.31
COc1cc2nc(NC(=O)c3ccc(Cl)cc3)sc(=O)c2cc1OC,0.98,-1.7
O=C(Nc1nnc(CC(c2ccccc2)c2ccccc2)s1)c1ccco1,0.91,0.61
CCOC(=O)C1=C(N)Oc2cc(O)ccc2C1c1ccc(C)cc1 (stereo unspecified),0.78,0.61
COc1ccc(/C=C/C(=O)Nc2ccc(-n3nncc3-c3ccccc3)cc2)cc1OC,0.32,-2.3
Cc1ccc(NC(=O)c2ccc(C(=O)c3ccccc3)cc2)nc1,0.91,0.68
C/C(N)=C(/C#N)C(=O)COC(=O)C1CCC(C(C)(C)C)CC1 (stereo unspecified),5.3,-0.78
NC(=O)COC(=O)c1cccc(S(=O)(=O)N2CCCCC2)c1,0.03,0.31
CCOC(=O)c1ccc(NC(=O)CC2C(=O)N(c3ccc(F)cc3)C(=O)N2CCCOC)cc1 (stereo unspecified),0.25,-2.6
Cc1cc(C)cc(OCC(=O)OCC(=O)NCc2ccco2)c1,0.56,-0.73
Fc1cccc(/C=N/Nc2cc(N3CCOCC3)ncn2)c1,0.63,1.6
CCN(Cc1cc2ccc(C)cc2[nH]c1=O)C(=O)c1cccnc1,1.4,-0.46

Further results follow.
molecule,KCNQ2 pot,KCNQ2 pot baseline
CCOC(=O)c1cc2[nH]c3ccccc3c2[n+](-c2ccc([N+](=O)[O-])cc2)c1N,0.15,0.21
CN(C)C(=S)Nc1ccc([N+](=O)[O-])cc1,0.23,-1.1
CC(C)Oc1cccc(C(=O)NC(=S)Nc2ccc3c4c(cccc24)CC3)c1,0.17,0.13
O=C(Nc1ccc(CSc2ccccc2)cc1)c1ccc(CN2CCOCC2)cc1,0.14,0.75
Cc1[nH]c(=O)[nH]c(=O)c1S(=O)(=O)NCCc1ccc(S(N)(=O)=O)cc1,0.34,0.27
CC(=O)NNC(=O)c1csc(Cc2c(Cl)sc3ccc(Cl)cc23)n1,5.8*,0.35*
CC1(C)CC(O)C(C)(C)N1O (stereo unspecified),0.89,-1.3
COc1ccc(NC(=O)C2CCC(N3C(=O)C4C5C=CC(C5)C4C3=O)CC2)cc1 (stereo unspecified),2.6,1.3
CCCn1nnnc1NC(=O)c1ccc2ccccc2c1,3.1,1.6
COc1ccc(C(=O)O/N=C(\N)c2ccc(Br)cc2)cc1,0.24,0.2
CCCCSc1nc2c(cnn2-c2ccc(Cl)cc2)c(=O)[nH]1,3.2,1.2
COc1ccccc1CNC(=O)C1CC(=O)N(C2CCCC2)C1 (stereo unspecified),0.86,0.91
Cc1cc(NC(=O)C2CCN(S(=O)(=O)c3c(C)noc3C)CC2)ccc1Br,0.67,-2.5
Fc1ccc2c(c1)c1n[nH]c(=S)nc1n2CCc1ccccc1,0.37,-0.03
CC(NC(=O)COC(=O)/C=C/c1cccc(C(F)(F)F)c1)c1ccccc1 (stereo unspecified),0.81,-0.42
COC1=C(c2ccccc2)C(=O)c2ccccc2C1=O,0.12,1.1
CCc1ccc(/C=N\NC(=O)c2ccc(Br)o2)s1,0.17,-0.01
CS(=O)(=O)c1ccccc1-c1nc(-c2cc(C(F)(F)F)cc(C(F)(F)F)c2)no1,1.5,1.7
CCOc1ccc(NC(=O)CN(C)C(=O)c2ccc(N3CCCCC3)c([N+](=O)[O-])c2)cc1OCC,0.74,-0.93
Cc1ccccc1CC(=O)Nc1ccc(S(=O)(=O)N2CCN(C)CC2)cc1,0.01,0.06
Cc1ccc(N(C(=O)CNC(=O)c2ccco2)C(C(=O)NCC2CCCO2)c2ccccc2)cc1 (stereo unspecified),2.3,-0.26
O=C(CCN1C(=O)c2ccccc2S1(=O)=O)NCc1ccco1,1.2,-0.46
COc1cc(NC(=O)NCC2CCN(Cc3ccccc3C)CC2)cc(OC)c1OC,1.3,-1.1
COC(=O)C1=C(C(=O)OC)[C@@H]2N(Cc3ccccc3)c3ccccc3[C@@]23C[C@@H](C(=O)OC)N(C(=O)CC(C)C)C3=N1,0.1,1.6
O=C(COc1ccc(=O)n(-c2ccccc2)n1)Nc1ccccc1,0.11,-1.1
O=C(Cc1cccc(C(F)(F)F)c1)OCC(=O)N1CCN(S(=O)(=O)c2ccc(Cl)cc2)CC1,2.1,-0.53
O=C(CN1C(=O)c2ccccc2S1(=O)=O)c1ccc(F)c(F)c1,0.69,-0.45
COc1ccc(-n2nc3c(N4CCC(C(=O)NCc5ccccc5)CC4)nnc(C)c3c2C)cc1,0.53,-1.3
O=C(CSc1nnc(-c2ccccc2)c(-c2ccccc2)n1)NC1CCS(=O)(=O)C1 (stereo unspecified),0.87,-0.42
COc1cc2ncnc(NCCc3ccccc3)c2cc1OC,5.4*,-0.59*
Cc1cc2ccccc2c(=O)n1CC(=O)N(C)c1ccc(F)cc1,1.4,-0.6
CCOCCn1c(=NC(=O)CSCC(=O)Nc2cc(C)on2)sc2cc(OC)ccc21,0.84,1.3
Nc1c(C(=O)Nc2ccc(Cl)c(Cl)c2)sc2nc(-c3cccnc3)ccc12,1.2,1
CCCCCSc1nc(O)cc(=O)[nH]1,0.55,0.65
OC12CC3C[C@H](C1)C(N1CCOCC1)[C@@H](C3)C2 (stereo partly specified),0.69,-0.81
Cc1cc(C(=O)NNC(=O)C2CCCC2)c(C)o1,0.47,-0.25
O=C(O)c1cc(N/N=C/c2ccncc2)ccc1Cl,0.02,0.01
C=C(C)c1cccc(C(C)(C)NC(=O)NCCN(CC)CC)c1,0.96,1.4
COc1ccc(C(=O)C2CCCN(C(=O)c3cccnc3SC)C2)c(C)c1 (stereo unspecified),0.15,1.1
O=C(CSc1ccc([N+](=O)[O-])cc1)NCC1CCCCC1,0.99,-0.48

From PubChem BioAssay
